# Assay outcomes from PubChem BioAssay.
# PABP polyA inh – PABP poly(A) RNA binding inhibitors, primary screen, biochemical, fluorescence polarization, uHTS | Polyadenylate-binding protein 1 (Homo sapiens), P11940 | inhibition, % at 35 µM | hit rate 1% among 290,000 | AID 2014, 2009;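 active = 50% or more with normal probe brightness, or confirmed in later tests; inconclusive = above 50% with abnormal brightness, or retests that disagree; inactive = below 50% or failed in later tests; about a fifth of its hits are not listed in these tables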;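 note: calls also rest on retests at 20 µM and on dose response follow-up; controls were probe without protein and protein plus probe with vehicle; some compounds called inactive have numbers as strong as hits; many hits fall short of the cut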
# Target sequence (P11940 whole entry, looked up): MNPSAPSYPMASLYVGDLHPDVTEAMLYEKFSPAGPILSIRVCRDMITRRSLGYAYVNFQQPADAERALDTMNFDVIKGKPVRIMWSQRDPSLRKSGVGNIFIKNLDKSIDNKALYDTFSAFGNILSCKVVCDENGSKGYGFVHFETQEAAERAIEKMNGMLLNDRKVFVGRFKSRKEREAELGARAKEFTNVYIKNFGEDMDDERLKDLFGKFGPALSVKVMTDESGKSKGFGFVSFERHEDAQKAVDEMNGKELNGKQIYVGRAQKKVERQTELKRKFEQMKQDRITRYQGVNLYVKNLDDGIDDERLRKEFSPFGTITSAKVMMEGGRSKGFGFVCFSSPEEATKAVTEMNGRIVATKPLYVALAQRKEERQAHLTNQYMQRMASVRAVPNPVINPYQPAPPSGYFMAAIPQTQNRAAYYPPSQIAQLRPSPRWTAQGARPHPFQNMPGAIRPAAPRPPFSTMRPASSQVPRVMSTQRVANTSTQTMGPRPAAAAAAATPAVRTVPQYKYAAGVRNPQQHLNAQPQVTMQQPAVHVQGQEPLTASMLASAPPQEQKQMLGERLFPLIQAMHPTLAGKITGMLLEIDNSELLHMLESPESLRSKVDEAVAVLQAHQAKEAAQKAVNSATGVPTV
# MT1-MMP act inh – blockers of MT1-MMP proenzyme processing, primary screen, HT1080 RFP-PRO-GFP cells, GFP/RFP fluorescence | Matrix metalloproteinase-14 (Homo sapiens), P50281 | GFP/RFP ratio fluorescence, overnight; percent of plate control window, DMSO zero | hit rate 0.061% among 360,000 | AID 651647, 2012 | GFP/RFP ratio change, % at 20 µM;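 active = GFP/RFP ratio change of at least 30% with cell ATP level not reduced by more than half and red fluorescence within 50% of control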; note: strong numbers were not always called active
#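 Test system: HT1080 RFP-PRO-GFP cells; Benchmarks: DMSO and RFP-L50D-GFP cell wells; Timing: cells overnight before dosing, compound overnight, 37 °C, 5% CO2; Compound: one 20 µM compound dose with 1% DMSO; Read-out: GFP/RFP fluorescence ratio.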
# eIF4H FP inh – human eIF4H binding inhibitors, primary screen, translation initiation inhibitor project, biochemical, uHTS, fluorescence polarization. AID 2012, 2009. inhibition, % at 35 µM. eIF4H fluorescence polarization binding assay. Eukaryotic translation initiation factor 4H (Homo sapiens), Q15056. hit rate 0.94% among 290,000;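 active = 50% or more with normal probe brightness, or confirmed in later tests; inconclusive = above 50% with abnormal brightness, or retests that disagree; inactive = below 50% or failed in later tests; about a fifth of its hits are not listed in these tables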;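 note: calls also rest on retests at 20 µM and on dose response follow-up; 0% = protein and probe with vehicle and 100% = probe without protein; strong numbers were not always called active; many hits fall short of the cut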
# Env fusion inh – inhibitors of HIV-1 Env-driven cell-cell fusion, primary screen, HeLa-JRFL effector, CEM21 target cells, luciferase; hit rate 1.1% among 360,000; inhibition, % at 12.3 µM; AID 651610, 2012;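 active = mean replicate inhibition score of at least 50 and every replicate individually at or above 50; inconclusive = only one of the two criteria met; inactive = mean below 50 and not all replicates reaching 50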;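 note: 0% = plate neutral controls and 100% = maraviroc near 300 nM; one replicate is shown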
# Rce1 inhib – yeast Rce1p protease inhibitors, primary screen, biochemical, fluorescence, cell-free homogeneous. CAAX prenyl protease 2 (Saccharomyces cerevisiae (strain ATCC 204508 / S288c)), Q03530. yeast membranes, quenched prenylated peptide cleavage fluorescence. calls only. hit rate 0.27% among 290,000;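 active = fall in fluorescence gain of 50% or more versus controls, with final raw signal at or below 3038400; inconclusive = same 50% fall but final raw signal above 3038400; inactive = fall in fluorescence gain under 50%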;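 note: plate controls were neutral control wells for no effect and wells lacking membranes for full effect; tested at 10 µM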
# Yeast UUG start – modulators of yeast start codon fidelity, primary screen, whole organism, S. cerevisiae, single point, plate reader | activity score, % at 18.7 µM | S. cerevisiae UUG-firefly luciferase reporter, luminescence/redox ratio | AID 602363, 2012 | hit rate 0.13% among 350,000;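 active = replicate mean at a twofold rise or more, about +100% in these data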;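 note: firefly luciferase made from a UUG start codon reports start codon fidelity; reporter light over untreated wells divided by growth signal over untreated wells; some hits fall short of that in this replicate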
# CSC inhib – cancer stem cell viability inhibitors, primary screen, luminescence; hit rate 1.1% among 300,000; AID 2717, 2010; cancer stem cell-like cells viability; inhibition, % at 7.5 µM;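 active = mean at 75% or more and at least half the replicates too; inconclusive = mean and replicates disagree; tested in HMLE shEcad cells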;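 note: 0% = median of negative and 100% = median of positive control wells; the first replicate is given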
# MT1-MMP act inh RFP – also measured in MT1-MMP act inh; calls as there; RFP signal change, %; measured here: RFP expression control read;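 0 = vehicle wells; hits needed this value within 50% of zero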
# An asterisk follows results filed as active; i = inactive; ? = inconclusive; · = not tested or not shown; & = joins results of further samples; [ ] = another dose, or the depositor's remark. Random draw from the library. Share with any hit: about 2.9%.
SMILES,PABP polyA inh,MT1-MMP act inh,MT1-MMP act inh RFP,eIF4H FP inh,Env fusion inh,Rce1 inhib,Yeast UUG start,CSC inhib
COc1cc(OC)c(NC2=CC(=O)C(=O)c3ccccc32)cc1Cl,2,26,-16,-11,-105,i,3,102*
COc1ccc(S(=O)(=O)NCc2ccco2)cc1-c1nnc2c3ccccc3c(C)nn12,-2,2,-2,-9,33,i,·,-12
CC1(C)CC(=O)C2=C(C1)N1C(=C(C#N)C2c2ccc(Cl)cc2)N=C(N)c2ccccc21 (stereo unspecified),4,-15,-18,14,15,i,-9,23
CCN1CCN(C(=S)Nc2ccc(C(C)=O)cc2)CC1,-7,-6,4,5,1,i,-18,-1
CCCCC(=O)NC(NC(=S)N1CCOCC1)C(Cl)(Cl)Cl (stereo unspecified),0,3,4,-8,-43,i,-1,5
CCn1nnnc1SCC(=O)N1c2ccccc2Sc2ccccc21,3,0,2,6,·,i,17,-9
COc1ccc(C(=O)COC(=O)C2CC3CCCC(C2)C3=O)cc1Br (stereo unspecified),·,4,2,·,8,i,-15,·
COC(=O)CSc1nnc([C@H](Cc2ccccc2)NC(=O)OC(C)(C)C)o1,1,1,0,-1,·,i,-1,-11
COCCn1c(=O)[nH]c2cc(C(=O)Nc3nnc(C)s3)ccc21,-9,-3,3,3,-25,i,-10,-16
O=S(=O)(/N=C/c1ccccc1O)c1cccs1,4,-2,2,-8,·,i,-14,·
COc1ccc(NC(=O)C2CCCN(c3c4c(nc5ncnn35)CCC4)C2)cc1OC (stereo unspecified),-4,-2,0,0,3,i,0,-7
CCc1ccc(NC(=O)Nc2ccncc2)cc1,13,3,2,10,-13,i,-10,3
CCCn1nnnc1NC(=O)c1cc(Br)ccc1OC,-5,7,6,-12,-1,i,·,-9
CCCC(C(=O)NC(C)(C)CC)N(CC1CCCO1)C(=O)CNS(=O)(=O)c1ccc(F)cc1 (stereo unspecified),-1,0,2,-8,21,i,-26,-3
Cc1cc(N/N=C/c2ccc(Cl)cc2Cl)nc(NCc2ccccc2)n1,-2,-17,-16,7,17,i,·,?
CC(C)NC(=O)N(C)C[C@H]1Oc2ccc(NC(=O)C3CC3)cc2C(=O)N([C@H](C)CO)C[C@@H]1C,·,1,1,·,-10[16.7 µM],·,-6&-2,15
Cc1ccc(NS(C)(=O)=O)c(C(=O)c2ccccc2)c1,-4,1,-1,-9,-36,i,-19,0
Cc1ccc(NC(=O)C2CC(=O)Nc3nncn32)cc1 (stereo unspecified),-4,-3,3,-6,15,i,·,7
O=C(NCc1cccnc1)NC1CC(=O)N(c2ccc3c(c2)OCCO3)C1 (stereo unspecified),-19,8,5,-2,-14,i,-15,-10
Oc1ccccc1/C=N/NC(=S)NC1CC2CCC1C2 (stereo unspecified),8,6,-3,9,-23,i,-40,56
CC(C)(C)NC(=O)CSc1nnc(-c2ccncc2)n1Cc1ccccc1,-3,6,1,4,·,i,-16,-6
N#C/C(=C\c1ccc[nH]1)C(=O)NCC1CCCO1 (stereo unspecified),-5,1,-1,-6,-11,i,·,·
CCCCn1c(N)c(S(=O)(=O)c2ccc(C)cc2)c2nc3ccccc3nc21,-2,-16,-5,-6,21,i,-15,5
C=CCn1c(NCc2ccc(OC)cc2)nc2ccccc21,-1,2,-1,-4,-8,i,-9,-6
CC(=O)N(C)c1cc([N+](=O)[O-])ccc1OCc1ccccc1,·,4,3,·,1,·,-11,·
O=S(=O)(c1ccccc1)N(Cc1ccc(Cl)cc1)c1ccncc1,6,-1,3,-18,7,i,-8,-15
O=C(COC(=O)c1ccc(Br)o1)NCC(=O)Nc1ccc(F)cc1,·,0,2,·,3,·,-34,-8
Cn1c(=O)c(=O)n(C)c2cc(S(=O)(=O)N3CCN(C4CCCCC4)CC3)ccc21,-1,3,3,-5,-9,i,-10,-10
CCc1nnc(NC(=O)Cn2c(=O)oc3ccccc32)s1,2,-7,1,8,·,i,2,·
Cc1ccc(C)c(NC(=O)CN2C(=O)c3ccccc3C2=O)c1,·,2,-2,·,-6,i,4,-6
COc1ccccc1CCNC(=O)C(=O)NCC1OCCN1S(=O)(=O)c1ccc(C)cc1 (stereo unspecified),-4,3,-4,-9,·,i,9,-5
O=C(NCn1cnccc1=O)c1ccccc1,3,2,3,-2,-5,i,·,-13
Cc1ccc(C)c(NC(=O)COC(=O)CC2c3ccccc3CCN2S(=O)(=O)c2ccc(F)cc2)c1 (stereo unspecified),-8,-3,-11,5,·,i,·,·
S=C(NCc1ccc(Cl)cc1)NC12CC3CC(CC(C3)C1)C2,6,-5,-13,-4,103*,i,-27,38
Nc1ccc(-n2nnnc2CN2CCOCC2)cc1,-7,5,5,-4,-7,i,-12,1
O=C(Nc1ccc(Cl)cn1)c1cccc(F)c1,1,-4,-7,-2,·,i,-17,-2
COc1ccc(-c2nc(CS(=O)CC(=O)NC3CCC(C)CC3)c(C)o2)cc1OC (stereo unspecified),2,2,3,-6,-37,i,-7,13
Cc1ccc(-c2nnnn2CS(=O)(=O)c2ccccc2)cc1,5,-6,-10,4,-41,·,-22,-9
COc1cccc(CCNC(=O)CCCC(=O)c2ccccc2)c1,-2,-1,2,-10,-4,i,1,-1
O=C(CCCN1C(=O)S/C(=C\C=C\c2ccccc2)C1=O)Nc1ccc(O)cc1,9,0,-14,-6,-20,i,-16,-2

# Some of these compounds in order of their number in Yeast UUG start, low to high.
mol | Yeast UUG start
O=C(Nc1ccc(Cl)cn1)c1cccc(F)c1 | -17
O=S(=O)(c1ccccc1)N(Cc1ccc(Cl)cc1)c1ccncc1 | -8
Cc1ccc(C)c(NC(=O)CN2C(=O)c3ccccc3C2=O)c1 | 4

# Further records:
SMILES,PABP polyA inh,MT1-MMP act inh,MT1-MMP act inh RFP,eIF4H FP inh,Env fusion inh,Rce1 inhib,Yeast UUG start,CSC inhib
COc1cccc(-n2nnc(S(=O)(=O)c3ccc(C)cc3)c2N)c1,16,1,-5,2,-13,i,·,3
NC(=O)c1nsc(C(=O)N(c2ccc(F)cc2)C(C(=O)NC2CCCC2)c2ccncc2)c1N (stereo unspecified),1,2,2,-6,15,i,3,19
CNC(=O)c1cc(C(=O)c2ccc(F)cc2C(F)(F)F)c[nH]1,-11,1,-7,-5,-6,i,-13,-8
CSc1ncc(C(=O)Nc2ccccc2Cl)c(C)n1,-1,-5,-3,8,8,i,-7,11
Cc1ccccc1N=C1SCC(=O)N1Cc1ccccc1,2,-3,-4,-7,-7,i,-6,-4
C=C(C)C1CC=C(C)/C(=N/NC(=O)c2ccc(NC(=O)c3cccc(C)c3)cc2)C1 (stereo unspecified),-8,2,7,4,·,i,-14,·
CC(/C=C1\SC(=S)N(NC(=O)c2cccc(O)c2)C1=O)=C\c1ccccc1,0,7,12,-3,·,i,0,22
O=C(c1ccccc1)N1CCN(C(=O)c2nn3c(C(F)(F)F)cc(-c4ccccc4)nc3c2Br)CC1,4,3,-3,-3,21,i,16,5
O=C(/C=C/c1cn(CC(O)CN2CCCCC2)c2ccccc12)c1cccs1 (stereo unspecified),-6,-55,-2,-2,·,i,·,21
CCOC(=O)N1CCN(C(=O)c2ccc(CS(=O)(=O)c3c(Cl)cccc3Cl)o2)CC1,6,-3,6,3,-10,i,-17,5
Cc1nc2ccc(C(=O)N3c4ccccc4CC3C)cc2s1 (stereo unspecified),-2,1,1,11,-26,i,-17,-7
CC1Sc2ccc(S(=O)(=O)N3CCC(C(=O)N(C)Cc4ccccc4)CC3)cc2NC1=O (stereo unspecified),2,-4,-22,-3,-9,i,-3,-14
CC(=O)c1c(C)[nH]c(C(=O)Nc2cccc(S(=O)(=O)N(C)c3ccccc3)c2)c1C,-12,14,-15,-12,9,i,·,-4
CC(C)C(=O)NC(Nc1ccc(S(N)(=O)=O)cc1)C(Cl)(Cl)Cl (stereo unspecified),-6,3,9,3,2,i,-11,-11
CCN(CC)C(=O)Cn1cc(SCC(=O)NC)c2ccccc21,7,4,2,-2,-13,i,·,-5
CCCOc1ccccc1Nc1nnc(C)c(=O)[nH]1,-5,0,1,-14,-30,i,-18,5
Cc1c(C(=O)N2CCOCC2)[nH]c2ccc(OCc3ccccc3)cc12,10,1,-1,3,36,i,-9,-4
CCCCCNC(=O)CN(c1ccc2c(c1)OCO2)S(C)(=O)=O,-8,-2,0,0,·,i,-4,-9
CN1CCN(c2ncnc3scc(-c4ccccc4Cl)c23)CC1,10,-30,-14,-6,34,i,-14,-14
COc1ccc(CCNc2oc(Cc3cccc4ccccc34)nc2C#N)cc1OC,-14,-7,-23,-7,·,i,15,-9

# Full records, quoted from the list. Order of screens: PABP polyA inh, MT1-MMP act inh, MT1-MMP act inh RFP, eIF4H FP inh, Env fusion inh, Rce1 inhib, Yeast UUG start, CSC inhib
# Shown for `O=C(Nc1ccc(Cl)cn1)c1cccc(F)c1` : 1, -4, -7, -2, ·, i, -17, -2
# Shown for `O=C(CCCN1C(=O)S/C(=C\C=C\c2ccccc2)C1=O)Nc1ccc(O)cc1` : 9, 0, -14, -6, -20, i, -16, -2

# Carrying on.
SMILES,PABP polyA inh,MT1-MMP act inh,MT1-MMP act inh RFP,eIF4H FP inh,Env fusion inh,Rce1 inhib,Yeast UUG start,CSC inhib
Cc1ccc(O)c(-c2cc(C(F)(F)C(F)F)nc(-c3ccccc3)n2)c1,-14,4,4,1,·,i,-19,4
C=CCC1(CC=C)CCCN1C(=O)CC1C(=O)NCCN1Cc1cc(OC)cc(OC)c1 (stereo unspecified),-10,-2,0,11,6,i,·,10
CCOC(=O)C1CCN(C(=O)c2cc3ccccc3oc2=O)CC1,-5,1,6,0,-17,i,·,-6
CCOC(=O)c1ccc(NC(=O)NC2CC3CCC(C2)N3Cc2nnnn2Cc2ccco2)cc1 (stereo unspecified),-2,-2,-4,-6,·,i,0,-10
Cc1ccc(CN2C(=O)c3ccccc3NC2c2cc(Br)ccc2O)cc1 (stereo unspecified),0,2,0,1,-3,i,-5,110*
COc1cccc(CC(=O)OCC(=O)NCC(=O)Nc2cccc(C)c2C)c1,·,-2,1,·,-1,i,·,-3
CC1(C)Cc2c(sc(NC(=O)/C=C/C(=O)O)c2C#N)CO1,9,-3,2,-3,1,i,-21,·
O=C(COC(=O)C1CC2C=CC1C2)Nc1ccc2c(c1)OC(F)(F)O2 (stereo unspecified),6,2,-1,-2,-55,i,-17,3
O=C(COC(=O)CCc1ccc(S(=O)(=O)N2CCOCC2)cc1)Nc1ccccc1[N+](=O)[O-],·,2,4,·,0,·,10,-4
CCOc1ccccc1NC(=O)CSc1nnc(CNC(=O)COc2ccc(Cl)cc2)o1,-4,1,-3,32,·,i,-15,·
N#C/C(=C\c1ccccc1Cl)C(=O)NC(=O)Oc1ccccc1,1,-4,4,-3,-8,i,-21,·
Cn1c(O)c(N=Nc2ccccc2)c2ccccc21,24,2,7,-12,-1,i,-15,-11
CCOc1ccc(S(=O)(=O)NCCC(=O)NC2CCN(Cc3ccccc3)CC2)cc1,·,-6,-3,·,2,i,-15,-5
CCCCN(C)C(=O)c1sc(=O)n(Cc2c(C)cccc2C)c1C,·,1,-6,·,-24,·,-16,·
